High-throughput results deposited in PubChem BioAssay by several laboratories.
INS promoter inh: TRM-6 insulin promoter activity inhibition; TRM-6 cells (human fetal islet line), insulin promoter-eGFP reporter, imaging; reporter expression induced with tamoxifen; inhibition, % at 2 µM; hit rate 0.9% among 130,000; AID 1273;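 active means inhibition above the mean plus 3 SD, with well images judged a real hit on visual review, cut at about 60% in these data, passing the limit was not always enough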
GALR2 ag: activates the human galanin receptor 2 | GALR2-expressing cells, agonist activation read-out | activation, %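 (tested at 5 µM)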 | hit rate 0.48% among 140,000 | AID 803;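 active means above mean plus 3 SD of all compounds, about 5% in these data, not always enough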;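 further: 0% = vehicle buffer wells and 100% = reference agonist at full effect; tested in CHO reporter cells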
HSV augment: increases HSV replication in cells; hit rate 0.005% among 220,000; maximum fold increase; HSV replication augmentation in cells, fold increase;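 active means peak rise of 1.5-fold or more in the series; tested in PC3 cells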;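 further: first round at 10 µM; read as green reporter fluorescence; hits show the peak of a series up to 25 µM; 1 = signal of infected wells without compound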
RGS16-Gao HTS: RGS16-Galphao interaction regulator (human); hit rate 0.38% among 220,000; bead-based flow cytometry RGS16-Galphao binding, fluorescence; actives lie on both sides; binding response (% of control), % at 10 µM; AID 1441; O15492+P09471;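 active means below 25% or above 175%, edge rows of some plates excepted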;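 further: Galphao activated by GDP with aluminum fluoride before binding; 100% = wells without compound and 0% = beads without RGS; some results beyond the cut were filed as inactive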
PKD1 inh: blocks activity of human protein kinase D1. PKD1 kinase fluorescence polarization assay. inhibition, %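 (about 10 µM by stock and volumes)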. hit rate 0.056% among 200,000;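 active means inhibition of 50% or more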;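 further: controls were vehicle for no effect and a reference inhibitor for full effect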
Target sequence (Q15139 whole entry, looked up): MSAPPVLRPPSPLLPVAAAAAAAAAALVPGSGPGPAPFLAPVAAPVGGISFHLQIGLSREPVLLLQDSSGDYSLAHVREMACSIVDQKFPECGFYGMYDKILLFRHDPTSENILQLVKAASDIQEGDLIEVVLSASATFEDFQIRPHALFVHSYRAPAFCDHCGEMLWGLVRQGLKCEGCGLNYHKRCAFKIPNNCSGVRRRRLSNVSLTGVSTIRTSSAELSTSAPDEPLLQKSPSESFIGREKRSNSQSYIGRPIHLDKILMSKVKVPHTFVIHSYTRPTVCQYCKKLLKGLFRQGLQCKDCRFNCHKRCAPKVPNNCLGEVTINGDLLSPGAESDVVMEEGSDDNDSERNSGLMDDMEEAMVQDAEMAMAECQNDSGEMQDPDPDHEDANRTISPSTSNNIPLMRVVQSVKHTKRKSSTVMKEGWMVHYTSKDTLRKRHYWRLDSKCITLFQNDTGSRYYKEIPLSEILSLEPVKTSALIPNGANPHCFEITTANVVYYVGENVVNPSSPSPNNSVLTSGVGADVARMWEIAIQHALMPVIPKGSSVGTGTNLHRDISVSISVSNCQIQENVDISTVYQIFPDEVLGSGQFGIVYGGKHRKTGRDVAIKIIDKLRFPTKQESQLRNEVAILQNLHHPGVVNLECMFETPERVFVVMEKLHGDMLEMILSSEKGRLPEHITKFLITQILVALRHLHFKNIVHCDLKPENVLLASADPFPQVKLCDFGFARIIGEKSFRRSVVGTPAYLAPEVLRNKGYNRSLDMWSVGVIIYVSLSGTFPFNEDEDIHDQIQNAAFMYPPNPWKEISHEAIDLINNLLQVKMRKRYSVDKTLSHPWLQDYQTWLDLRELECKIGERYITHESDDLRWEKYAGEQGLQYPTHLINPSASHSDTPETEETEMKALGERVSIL
INS promoter inh cell count: also measured in INS promoter inh; calls as there; normalized cell count, %; measured here: cell count, toxicity; reference of the scale not given here;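 cells exposed to compound for 48 h; stained nuclei by imaging scaled within each plate; lower means fewer cells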
HSV augment primary fold: second read-out of HSV augment, no call of its own (marks repeat the call); fold increase; compound at 10 µM; measured here: primary screen fold increase 10 uM; tested in PC3 cells;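 GFP signal in the first replicate; 1 = infected wells without compound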
* marks the source's active call; other numbers are inactive results; i = inactive; . = not tested or not shown.

Structure | INS promoter inh cell count | INS promoter inh | PKD1 inh | GALR2 ag | RGS16-Gao HTS | HSV augment | HSV augment primary fold
COc1ccc(C(=O)C[n+]2ccc3c(c2)nc(-c2ccc(OC)cc2OC)n3C)cc1 | . | . | -4 | -3.3 | 85 | i | 0.9
Cn1c(SCc2ccccc2)nc(C(F)(F)F)cc1=O | 112 | -223 | 5 | . | 103 | i | 1
COc1ccc(S(=O)(=O)N(C)c2ccc(C(=O)NC3CCCC3)cc2)cc1 | 146 | -21 | 1 | . | 100 | i | 1.1
C=CCN1CCN(C(c2ccccc2OC)c2nnnn2C(C)(C)C)CC1 (centres undefined) | 120 | 25 | -2 | . | 95 | i | 1.1
CC(C)=CCc1c(O)c(CC=C(C)C)c2c(c1O)C(=O)CC(c1ccc(O)cc1)O2 (centres undefined) | . | . | -4 | . | 98 | i | 0.68
CCOC(=O)c1c(-c2ccccc2)oc2ccc(OCC)cc12 | 138 | 25 | -5 | -0.6 | 99 | i | 0.91
Cc1cc(C(=O)N[C@H](c2ccccc2)[C@@]2(C)C[C@@H]2[C@@H](C)C(=O)Nc2ccc3ccccc3c2)n(C)n1 | 118 | -10 | -3 | -1.7 | 96 | i | 0.82
O=C(CSc1ccc(Cl)cc1)Nc1ccccc1N1CCN(C(=O)c2ccc(Cl)cc2)CC1 | . | . | -8 | 0.7 | 130 | i | 0.98
CCC(C)C(=O)Nc1ccc([N+](=O)[O-])cc1OC (centres undefined) | . | . | -3 | . | 111 | i | 1.1
COc1cc(C(=O)O/N=C2/C=CC(=O)C(C)=C2C)cc(OC)c1OC | 156 | 0 | -6 | -1.8 | 100 | . | .
COC(=O)c1sc(-c2cccs2)cc1N | . | . | . | . | 159 | i | 0.91
COc1ccc(Cl)cc1NC(=O)c1cc(-c2ccc(C)cc2O)n[nH]1 | . | . | . | . | 108 | i | 1.2
COc1ccc(NC(=O)N2CCC(Cc3ccccc3)CC2)cc1 | 96 | 47 | 0 | . | 99 | i | 0.81
C/C(=N\NS(=O)(=O)c1ccc(C)cc1)c1ccc(Br)s1 | 89 | -13 | -2 | -0.1 | 105 | i | 1.1
Cc1nn(Cc2ccc(Cl)cc2)c(C)c1NC(=O)/C=C/c1cnn(C)c1 | 110 | 50 | 5 | -1.1 | 36 | . | .
C=CC[C@@H]1C=C[C@H](O/N=C/[C@@H](NS(=O)(=O)c2ccc(C)cc2)[C@H](C)/C=C/CC(=O)OC)[C@@H](CO)O1 | 89 | -57 | -14 | -1.0 | 102 | . | .
CC(=O)Nc1ccc(NC(=O)C(C)OC(=O)CNC(=O)c2sc3ccccc3c2Cl)cc1 (centres undefined) | . | . | -1 | -0.7 | 99 | i | 1
Cc1ccccc1Cn1c([N+](=O)[O-])cnc1C | 93 | 0 | 0 | -0.5 | 95 | i | 0.99
O=C(CSc1nnc(Cc2cccs2)n1CCc1ccccc1)N1CCCc2ccccc21 | 47 | -22 | -7 | -0.9 | 59 | i | 0.95
COc1ccc(CC2(CO)CCN(Cc3ccc(OC(F)(F)F)cc3)CC2)cc1 | . | . | 0 | . | 97 | i | 0.92
O=S(=O)(c1ccc2oc3ccc(S(=O)(=O)N4CCCCC4)cc3c2c1)N1CCCCC1 | 63 | 44 | -8 | -0.3 | 102 | i | 1.1
COc1ccc(-c2c(NC(=O)c3ccco3)n(C)c3ccccc3c2=O)cc1 | 125 | 19 | -2 | -1.4 | 102 | i | 0.92
CCCCn1c(=NC(=O)c2ccc3c(c2)OCO3)c(C#N)cc2c(=O)n3cccc(C)c3nc21 | 124 | -29 | -3 | -2.0 | 84 | i | 0.75
Fc1ccc(-c2nnc3n2CCCCC3)cc1 | . | . | -4 | . | 111 | i | 0.99
O=C(C#Cc1ccccc1)c1ccc([N+](=O)[O-])cc1 | 186 | -36 | -2 | 0.8 | 81 | . | .
O=C1NC(=O)C(CC(=O)N(c2ccccc2)C2(C(=O)NC3CCCC3)CCCCC2)N1 (centres undefined) | 115 | 13 | -7 | -0.6 | 102 | i | 0.99
NC(=O)CNc1n[nH]c(=S)[nH]c1=O | . | . | 0 | . | 103 | i | 1.2
CC1(C)CC(=O)C2=C(C1)OC(N)=C(C#N)C2C#Cc1ccccc1 (centres undefined) | 160 | 7 | -3 | -3.2 | 107 | i | 1.2
CO/N=C/C=C1/N(C)c2ccccc2C1(C)C | . | . | 1 | . | 95 | i | 0.82
c1ccc(CNc2c3c(nc4ncnn24)CCCC3)nc1 | 83 | 50 | -5 | -0.4 | 102 | i | 1

Of the compounds above, these have fluorine:
Structure | INS promoter inh cell count | INS promoter inh | PKD1 inh | GALR2 ag | RGS16-Gao HTS | HSV augment | HSV augment primary fold
Cn1c(SCc2ccccc2)nc(C(F)(F)F)cc1=O | 112 | -223 | 5 | . | 103 | i | 1
COc1ccc(CC2(CO)CCN(Cc3ccc(OC(F)(F)F)cc3)CC2)cc1 | . | . | 0 | . | 97 | i | 0.92
Fc1ccc(-c2nnc3n2CCCCC3)cc1 | . | . | -4 | . | 111 | i | 0.99

(continued)
Structure | INS promoter inh cell count | INS promoter inh | PKD1 inh | GALR2 ag | RGS16-Gao HTS | HSV augment | HSV augment primary fold
COc1ccc(/C=C/C(=O)Oc2cc(O)cc(O)c2)cc1 | . | . | . | . | 95 | i | 1.3
COc1ccc(N(CC(=O)Nc2cc(C)on2)S(=O)(=O)c2cc(C)ccc2C)cc1 | . | . | 0 | -2.0 | 93 | i | 0.78
CCOc1ccc2nc(Cl)c(C3CC(c4ccccc4)=NN3C(=O)c3cccs3)cc2c1 (centres undefined) | 124 | -19 | -9 | 0.9 | 82 | i | 0.96
CCCC(=O)Nc1ccccc1-c1nnn(CC(=O)Nc2ccc(OCC)cc2)n1 | 95 | -76 | -5 | -2.1 | 106 | i | 0.97
COc1cc2c(cc1OC)C(Cc1ccc(O)cc1)N(C)CC2 (centres undefined) | 115 | -21 | -6 | -1.8 | 110 | i | 1.1
Cc1cc(F)ccc1S(=O)(=O)N(C(=O)c1ccncc1)c1ccc(OC(=O)c2ccncc2)cc1 | . | . | 0 | . | 99 | i | 0.77
S=C(N/N=C1\CCc2ccccc21)NC1CCCCC1 | . | . | -7 | . | 102 | i | 1
O=C1c2ccccc2C(Nc2ccc(-c3nc4ccccc4[nH]3)cc2)N1Cc1ccco1 (centres undefined) | . | . | 9 | -1.2 | 97 | i | 0.86
COc1ccc(OC(C)C(=O)N2CCOCC2)cc1 (centres undefined) | 57 | 0 | 7 | 0.7 | 98 | i | 1.2
CCC(=O)NNc1cc(=O)c2c(=O)n(C)c(=O)n(C)c2[nH]1 | . | . | -2 | -3.7 | 113 | i | 0.92
CCOc1ccc(NC(=O)N(C2CCCC2)C2CCN(C(C)=O)CC2)cc1 | 137 | 0 | -5 | . | 101 | i | 0.94
COc1ccc(Cc2nnc(NC(=O)Cn3cnc4c3c(=O)n(C)c(=O)n4C)s2)cc1 | 73 | -235 | -11 | -2.1 | 104 | i | 1
O=c1c2c(nc3cc(-c4ccc(F)cc4)[nH]n13)CCCC2 | . | . | -4 | -0.4 | 98 | i | 0.85
O=c1c2cn[nH]c2nc(SCc2c(F)cccc2F)n1-c1ccc(Cl)cc1 | . | . | -9 | . | 100 | i | 0.89
COCc1c(CCl)cnc(C)c1O | . | . | -7 | . | 96 | i | 1
CC1=NNC(=O)C1C(c1ccc(F)cc1)C(C#N)C#N (centres undefined) | 123 | 0 | 8 | 0.1 | . | i | 1
Cc1ccc2cc(CN(C(=O)c3ccncc3)C(C)C)c(=O)[nH]c2c1 | 174 | 24 | -9 | -1.3 | 102 | i | 1.1
O=C(N/N=C/c1sc(N2CCOCC2)nc1-c1ccccc1)c1ccccc1O | 110 | 23 | -11 | -1.4 | 104 | i | 0.82
CCOc1ccc(-c2nc(N)ncc2Oc2ccc(OC)cc2)c(O)c1 | . | . | . | . | 105 | i | 0.85
CS(=O)(=O)N1CCN(c2ccc(C(=O)NC3C4CC5CC(C4)CC3C5)cc2[N+](=O)[O-])CC1 (centres undefined) | 59 | 20 | -6 | -1.3 | 104 | i | 1.2
CN(C)S(=O)(=O)c1cccc(NC(=O)CCc2c[nH]c3ccccc23)c1 | . | . | -3 | . | 86 | i | 0.85
O=C(CN1C(=O)CSC1=O)Nc1ccc2c(c1)OCCO2 | 121 | 64 | 7 | -2.3 | 100 | i | 0.99
Cc1onc(-c2c(F)cccc2Cl)c1C(=O)NC(=S)NCc1cccnc1 | 91 | 0 | 4 | -0.8 | 110 | . | .
c1ccc(CN2C3=NCCN3c3ccccc32)cc1 | 72 | -17 | -6 | -0.1 | 111 | i | 0.72
C/C(CCN1CCCCc2nc(C)c(C)cc21)=N\O[C@@H](C)CN1CCCCc2nc(C)c(C)cc21 | 78 | -20 | -10 | 0.0 | 100 | . | .
COc1ccc(NC(=O)N2CC(C)OC(C)C2)cc1OC (centres undefined) | 153 | 50 | 4 | -0.5 | 107 | i | 0.82
COC(=O)c1cn(NC(=O)c2cc(OC)cc(OC)c2)c(=O)c2ccccc12 | 134 | -24 | -4 | -2.3 | 108 | i | 1.1
COc1cc2c(cc1OC)C(C)N(C(=O)Cn1ncc3c1-c1ccccc1OC3)CC2 (centres undefined) | . | . | -8 | -1.2 | 90 | i | 0.98
CCCCC[n+]1ccn(C2=C([O-])c3ccccc3C(=O)/C2=N\S(=O)(=O)c2ccc(Br)cc2)c1 | . | . | . | . | 99 | i | 0.91
Cc1ccc(S(=O)(=O)N(C)CCCC(=O)Nc2cccc3ccccc23)cc1 | 115 | -27 | 7 | -1.2 | 108 | i | 1

More structures follow.
Structure | INS promoter inh cell count | INS promoter inh | PKD1 inh | GALR2 ag | RGS16-Gao HTS | HSV augment | HSV augment primary fold
CC(=O)Nc1sc(NC(=O)c2ccc(C)cc2)nc1-c1cccs1 | 131 | -75 | -2 | -1.1 | 106 | i | 0.99
COc1cc(N)c(Cl)cc1NC(=O)c1ccccc1 | 96 | -19 | 12 | -1.1 | 98 | i | 0.85
Cc1csc(NC(=O)CSc2nc3ccccc3c(=O)[nH]2)n1 | . | . | -8 | -0.7 | 80 | i | 0.97
COc1ccc(-c2csc(NC(=O)COC(=O)c3ccco3)n2)cc1 | 90 | -10 | -7 | -1.6 | 102 | i | 0.99
Clc1ccc(SCCN2CCNCC2)cc1 | . | . | -3 | . | 102 | i | 0.86
CCCNCC(O)Cn1c2ccccc2n2c(=O)cc(C)c(C#N)c12 (centres undefined) | 44 | -3 | -5 | -1.5 | 114 | i | 0.89
CCOc1ccc2nc(NC(=O)CS(=O)(=O)c3ccc(C)cc3)sc2c1 | 37 | -10 | 7 | -0.8 | 99 | i | 0.77
COc1ccc(-c2ccc(SCC(=O)Nc3cc(C)on3)nn2)cc1OC | . | . | -4 | -0.1 | 100 | i | 1.1
C/C(CC(=O)Nc1cc(C)cc(C)c1)=N\NC(=O)c1ccccn1 | 54 | 43 | -3 | -0.7 | 59 | i | 0.89
O=C(NNC(=O)c1ccccc1Cl)c1ccco1 | . | . | . | . | 106 | i | 1
CC(=O)NNC(=O)CCC(=O)Nc1ccccc1 | . | . | -11 | 17* | 100 | i | 1.2
O=C(CCn1c(=S)[nH]c2ccccc2c1=O)NCCc1ccc(Cl)cc1 | 109 | 4 | -7 | . | 100 | i | 0.91
COc1cc(OC)cc(C(=O)NCCN2CCOCC2)c1 | 98 | 21 | 3 | -3.7 | 114 | i | 0.89
Cc1cc(C)nc(N2N=C(C(C)(C)C)CC2=O)n1 | 53 | -52 | -2 | -2.3 | 107 | i | 1.1
CC(=O)c1cccc(N/C=C\c2nnnn2-c2ccc(F)cc2)c1 | 157 | 0 | 2 | 0.5 | 107 | i | 0.77
CCCn1nc2cc(C(=O)NCc3ccc(OC(F)(F)F)cc3)ccc2c1OCC | 201 | 9 | 3 | 0.2 | 100 | i | 0.81
COc1ccc(C)cc1NC(=O)COC(=O)c1ccc(OCc2ccc(Cl)cc2Cl)c(OC)c1 | 48 | 10 | -3 | -2.3 | 106 | i | 0.98
Cc1ccc(C(=O)Nc2nc(N)n(-c3ccccc3)n2)cc1 | . | . | . | . | 102 | i | 1
O=C(/C=C/c1ccccc1)N1CCC(Cc2ccccc2)CC1 | 123 | 57 | -15 | -0.5 | 99 | . | .
COc1ccc2c(c1)C(=O)[C@@H](OC(=O)NCc1ccc3c(c1)OCO3)[C@H](c1ccc(OC)c(Br)c1)O2 | 82 | 0 | 6 | -2.0 | 94 | i | 0.82
O=C(NC1CCCc2ccccc21)c1ccccc1Br (centres undefined) | . | . | 5 | -1.4 | 97 | i | 0.93
CC1(C)CC(=O)c2sc(NC(=O)CCS(=O)(=O)c3ccccc3)nc2C1 | . | . | -15 | -1.6 | 106 | i | 0.56

A second format for part of the listing above:
Order of results: INS promoter inh cell count	INS promoter inh	PKD1 inh	GALR2 ag	RGS16-Gao HTS	HSV augment	HSV augment primary fold
C/C(CC(=O)Nc1cc(C)cc(C)c1)=N\NC(=O)c1ccccn1
  54	43	-3	-0.7	59	i	0.89
O=C(NNC(=O)c1ccccc1Cl)c1ccco1
  .	.	.	.	106	i	1
CC(=O)NNC(=O)CCC(=O)Nc1ccccc1
  .	.	-11	17*	100	i	1.2
